SENP1 FRET inh – human SENP1 catalytic domain inhibitors, primary screen, biochemical, FRET, uHTS; Sentrin-specific protease 1 (Homo sapiens), Q9P0U3; recombinant SENP1 catalytic domain, CyPet-SUMO1-YPet FRET cleavage; inhibition, % at 10 µM; hit rate 0.21% among 360,000; AID 624204, 2012;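 active means inhibition at least 30% at 10 µM, raw YFP signal under a set limit, fluorescence ratio 0.5 to 1.5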;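 further: 0% = enzyme with DMSO and 100% = no enzyme wells; some results filed as inactive read as strong as hits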
Target sequence (Q9P0U3 419-644 limits assumed): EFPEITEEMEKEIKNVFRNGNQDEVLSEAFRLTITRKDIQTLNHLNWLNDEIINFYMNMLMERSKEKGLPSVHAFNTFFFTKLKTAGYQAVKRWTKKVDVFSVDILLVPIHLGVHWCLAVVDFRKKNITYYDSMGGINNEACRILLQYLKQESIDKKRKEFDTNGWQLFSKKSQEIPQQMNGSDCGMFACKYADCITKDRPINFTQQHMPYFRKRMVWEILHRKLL
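Test system: human SENP1 catalytic domain; medium: Tris pH 8 buffer plus EDTA, NaCl, BME, BSA, NP40, catalase; incubation: 50 min reaction at room temperature; technique: FRET, CFP and YFP emission; controls: no-enzyme low control and enzyme-plus-DMSO high control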
NALP3 yeast inh – NALP3 inflammasome inhibitors in reconstituted yeast, primary screen, luminescence, uHTS. hit rate 0.39% among 330,000. inhibition, % at 10 µM. Yeast reconstituted NLRP3/ASC/caspase-1, beta-gal luminescence, 24 h;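 active means inhibition of 50% or more; inactive means inhibition below 50%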;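 further: plate controls were induced DMSO wells for no effect and uninduced yeast grown without galactose for full effect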
HKDC1 inh – HKDC1 hexokinase inhibitors, primary screen, biochemical, fluorescence, uHTS. Q2TB90. recombinant HKDC1, G6PDH/diaphorase resazurin coupled fluorescence. inhibition, % at 20 µM. hit rate 0.16% among 340,000;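 active means inhibition above about 35% when tested at 20 µM, limit read from the data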;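 further: plate controls were DMSO wells with enzyme for no effect and DMSO wells lacking enzyme for full effect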
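System: Recombinant HKDC1 hexokinase | Amount: HKDC1 at 5 µg/mL | Reagent: Glucose with 1 mM ATP | Doses: Single 20 µM dose | Incubation: Reaction time 90 min, room temperature, protected from light | Signal: Coupled resazurin fluorescence, excitation 525 nm, emission 613 nm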
PfGluPho inh – PfG6PD enzyme inhibitors, primary screen, biochemical, fluorescence intensity, uHTS. hit rate 0.78% among 350,000. AID 504690, 2011. inhibition, % at 20 µM. glucose-6-phosphate dehydrogenase-6-phosphogluconolactonase (Plasmodium falciparum 3D7). PfGluPho enzyme, NADPH resazurin-diaphorase fluorescence;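 active means inhibition reaching at least a set limit at 20 µM in the primary screen, cut at about 59% in these data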;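 further: 0% = DMSO wells with substrate and 100% = DMSO wells lacking glucose-6-phosphate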
Apaf1 inhib – inhibitors of human Apaf-1 apoptosome, primary screen, biochemical, DEVD-Rh110 fluorescence, uHTS. Apoptotic protease-activating factor 1 (Homo sapiens), O14727. reconstituted apoptosome caspase-3 activity. inhibition, % at 20 µM. hit rate 0.71% among 330,000; active means inhibition of at least 40% at 20 µM;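 further: plate controls were DMSO wells for no effect and DEVD-CHO caspase inhibitor wells for full effect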
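Material: reconstituted apoptosome with Apaf-1, cytochrome c, caspase-9, procaspase-3, dATP. Technique: Rh110 fluorescence intensity. Buffer or medium: pH 7.5 Hepes buffer with CHAPS, BSA, DTT. Times: 30 min plus 50 min, RT.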
SENP8 block – human SENP8 protease inhibitors, primary screen, biochemical, fluorescence, Nedd8 protein substrate, uHTS; Sentrin-specific protease 8 (Homo sapiens), Q96LD8; inhibition, % at 20 µM; recombinant SENP8; hit rate 0.64% among 360,000; in the data active means inhibition mostly above about 40%, no sharp cut-off; inactive means mostly below about 27%
Target sequence (Q96LD8 whole entry, looked up): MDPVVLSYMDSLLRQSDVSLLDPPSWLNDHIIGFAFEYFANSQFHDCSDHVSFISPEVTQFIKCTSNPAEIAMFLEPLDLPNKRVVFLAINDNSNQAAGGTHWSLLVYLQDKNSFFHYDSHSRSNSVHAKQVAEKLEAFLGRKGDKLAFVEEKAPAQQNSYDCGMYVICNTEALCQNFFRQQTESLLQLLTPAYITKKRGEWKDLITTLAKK
* = called active by the depositor; / = not tested or not shown. This is a subset; the hit share may differ from the screen's.

SMILES	SENP1 FRET inh	NALP3 yeast inh	HKDC1 inh	PfGluPho inh	Apaf1 inhib	SENP8 block
O=C(CCN1C(=O)C2(OCCO2)c2ccccc21)c1ccccc1	-1	11	-9	4	2	13
CCC(C)c1ccccc1OCCCNC1CCCC1 (stereo not drawn)	1	28	-6	27	6	10
O=C(c1cc(-c2cccc(O)c2)on1)N1CCCC1	-5	15	-6	11	2	15
CCOc1ccc(CN2CCNC(=O)C2CC(=O)NCCC2=CCCCC2)cc1 (stereo not drawn)	-6	9	-8	8	5	-32
O=C(Cn1cnc2sc3c(c2c1=O)CCCC3)NCC(=O)Nc1ccc(F)cc1F	0	5	1	4	8	17
CCOC(=O)C1CCN(C(=O)/C=C/c2ccc(OC)cc2)CC1	0	8	4	5	-11	25
CCOC(=O)C1=C(C)Nc2nnnn2C1c1cccnc1 (stereo not drawn)	1	15	-5	16	-3	12
Cc1sc2ncn(CC(=O)NCCCC(=O)N3CCC(C(N)=O)CC3)c(=O)c2c1C	2	15	-4	-6	8	12
COc1ccc(OC)c(-c2csc(-c3cccs3)n2)c1	0	15	-4	5	19	-115
CC1=C(C(N)=O)C(c2cccc(OCc3ccccc3)c2)n2nnnc2N1 (stereo not drawn)	-1	-1	-10	3	16	11
CC(C(=O)N1CCOCC1)N1C(=O)c2ccccc2C1=O (stereo not drawn)	-1	11	-3	-8	-10	14
CCCCCC(=O)Nc1ccc(S(=O)(=O)Nc2nccnc2OC)cc1	-3	-1	-6	-13	-8	8
COc1ccc(C(=O)NC(=S)Nc2ccc(S(=O)(=O)Nc3cc(OC)nc(OC)n3)cc2)cc1	0	15	4	-11	6	19
COc1ccc(OC)c(NC(=O)Nc2cc(NC(=O)Nc3cc(OC)ccc3OC)c(C)nc2C)c1	3	17	-8	-19	-9	17
Cc1cc(C)c(S(=O)(=O)/N=C2/C=C(SCC(=O)O)C(=O)c3ccccc32)cc1C	5	10	51*	106*	72*	54*
C/C(=N\NC(=O)Cn1nc(C)cc1C)c1ccc([N+](=O)[O-])cc1	1	-4	-3	-7	-13	27
COC(=O)C1=NN(c2cccc3ccccc23)C2C(=O)N(c3ccccc3OC)C(=O)C12 (stereo not drawn)	-3	12	5	-19	19	-91
Cc1cc(N2CCOCC2)n2nc(-c3cccc(F)c3)cc2n1	-57	26	7	-8	7	-134
Cc1nn(C)cc1S(=O)(=O)NCc1ccc2c(c1)OCO2	0	15	-4	4	-6	3
CCOC(=O)C1CCN(C(=O)c2cccc(NS(=O)(=O)c3ccc(Br)cc3)c2)CC1	0	3	0	-24	6	6
CC1CCCN(C(=O)COC(=O)Cc2c(F)cccc2Cl)C1 (stereo not drawn)	1	9	-1	-14	6	8
COc1cc(NS(=O)(=O)c2ccc(NC(=S)NC(=O)c3ccc(F)cc3)cc2)nc(OC)n1	1	-5	3	-22	18	16
Cc1ccc(Sc2nc3ccc(C)cn3c(=O)c2/C=N/O)cc1	-83	16	-11	-3	9	-243
O=C(CNC(c1ccccc1)c1ccccc1)Nc1cc([N+](=O)[O-])ccc1Cl	1	18	-5	15	12	35
Cc1ccc(CN2CCC(CO)(CC3CCCCO3)CC2)o1 (stereo not drawn)	1	19	-11	6	4	2

Given with each value named: part of the list above
> O=C(CCN1C(=O)C2(OCCO2)c2ccccc21)c1ccccc1
  SENP1 FRET inh: -1
  NALP3 yeast inh: 11
  HKDC1 inh: -9
  PfGluPho inh: 4
  Apaf1 inhib: 2
  SENP8 block: 13
> CCC(C)c1ccccc1OCCCNC1CCCC1 (stereo not drawn)
  SENP1 FRET inh: 1
  NALP3 yeast inh: 28
  HKDC1 inh: -6
  PfGluPho inh: 27
  Apaf1 inhib: 6
  SENP8 block: 10
> O=C(c1cc(-c2cccc(O)c2)on1)N1CCCC1
  SENP1 FRET inh: -5
  NALP3 yeast inh: 15
  HKDC1 inh: -6
  PfGluPho inh: 11
  Apaf1 inhib: 2
  SENP8 block: 15
> CCOc1ccc(CN2CCNC(=O)C2CC(=O)NCCC2=CCCCC2)cc1 (stereo not drawn)
  SENP1 FRET inh: -6
  NALP3 yeast inh: 9
  HKDC1 inh: -8
  PfGluPho inh: 8
  Apaf1 inhib: 5
  SENP8 block: -32

(listing goes on)
SMILES	SENP1 FRET inh	NALP3 yeast inh	HKDC1 inh	PfGluPho inh	Apaf1 inhib	SENP8 block
O=C(NCCc1ccccc1)c1nnc(CS(=O)(=O)c2ccccc2)o1	1	4	-6	2	2	12
CCC(CC)C(=O)OCC(=O)NC12CC3CC(CC(C3)C1)C2	2	6	-7	6	-11	6
COc1ccc(NS(=O)(=O)c2ccc(NC(=O)c3ccc(Br)cc3)cc2)nn1	5	9	-4	2	-4	-78
CC12CNCC(C)(CN(C3(O)C(=O)Nc4ccc(Br)cc43)C1)C2=O (stereo not drawn)	-4	8	-5	-2	-9	6
COC(=O)Sc1nc(N2CCOCC2)c2c(c1C#N)CC(C)(C)OC2	2	-5	5	50	-3	-15
Cc1ccccc1NC(=O)COC(=O)c1cc(=O)c2ccccc2o1	/	-2	/	/	0	/
COc1ccc(NC(=O)c2ccco2)c([N+](=O)[O-])c1	1	9	-5	-12	7	4
CCOC(=O)C1CCN(C(=O)c2ccc(NS(=O)(=O)c3ccc(F)cc3C)cc2)CC1	2	-2	-4	-8	5	12
O=c1c2cc(Cl)cc(Cl)c2nc2n1CCC2	1	-4	-10	1	-2	8
CC1CCN(S(=O)(=O)c2cn(CC(=O)Nc3cccc(C#N)c3)cn2)CC1	1	-1	1	-18	-10	13
CCCCN(CCCC)C(=S)N/N=C/c1c(C)[nH]n(-c2ccccc2)c1=O	6	33	-41	4	57*	16
COc1ccc(NC(=O)c2cc(Cl)ccc2Cl)c([N+](=O)[O-])c1	2	4	-9	-3	-13	19
Cc1ccnc(NC(=O)c2cccc(S(=O)(=O)Nc3ccc(C)cc3C)c2)c1	-1	22	-3	2	6	8
CCC(=O)Nc1cc(-c2cc3ccccc3oc2=O)ccc1OC	-24	7	-13	2	4	-387
COc1ccc(Oc2ccc(/C=N/NC(=O)c3cccnc3)cc2[N+](=O)[O-])cc1	3	2	-5	-3	17	10
Cc1ccc(-c2cc(N)nc(-c3ccccc3)c2)cc1	-20	23	0	15	30	-297
Cc1ccc(NC(=O)c2cc(S(=O)(=O)N3CCOCC3)cs2)cc1	4	8	-4	-3	-12	13
CCOC(=O)C1CCN(C(=O)c2ccc(S(=O)(=O)Nc3ccccc3Cl)cc2)CC1	-1	10	1	-7	5	-4
NC(=O)c1ccc(NC(=O)CNC(c2ccccc2)c2ccccc2)cc1	-1	12	-2	-4	3	26
COCCNC(=O)c1ccc(CSc2nc3ccccc3s2)cc1	-3	15	-1	-1	11	-23
Nc1nonc1C(=O)N/N=C/c1cc2c(cc1Br)OCO2	1	6	-4	8	0	-109
CC(=O)Nc1nc(COc2ccc3ccccc3c2)cs1	4	26	-5	4	0	10
COc1cc(O)oc1C=Nc1ccc(Oc2ccccc2)cc1	-6	17	6	8	18	-55
COc1ccc(NC(=O)c2cccc(NC(=O)C(C)C)c2)c([N+](=O)[O-])c1	3	26	15	-18	2	27
N#CCCN(CCC#N)C(=O)c1ccc2c(c1)OCO2	1	3	3	-7	-1	11

A second format for part of the listing above.
Fields – SENP1 FRET inh, NALP3 yeast inh, HKDC1 inh, PfGluPho inh, Apaf1 inhib, SENP8 block
O=C(CNC(c1ccccc1)c1ccccc1)Nc1cc([N+](=O)[O-])ccc1Cl
 : 1, 18, -5, 15, 12, 35
Cc1ccc(CN2CCC(CO)(CC3CCCCO3)CC2)o1 (stereo not drawn)
 : 1, 19, -11, 6, 4, 2

(further entries)
SMILES	SENP1 FRET inh	NALP3 yeast inh	HKDC1 inh	PfGluPho inh	Apaf1 inhib	SENP8 block
COc1ccc(/C=C2/Sc3ccc(C(=O)N4CCOCC4)cc3NC2=O)cc1OC	2	11	4	-8	-3	-2
CC1CCN(S(=O)(=O)c2cn(CC(=O)Nc3ccc(OC(F)(F)F)cc3)cn2)CC1	2	-3	0	6	8	14
CCc1cccc2c1NC(=O)C2(O)N1CCCC(C)C1 (stereo not drawn)	1	9	-10	6	0	16
COc1ccc(/C=C/C(=O)OCC(=O)c2ccc3c(c2)NC(=O)CO3)c(OC)c1	-2	0	4	-17	-34	-69
Cc1c(C)c2ccc(OC(C)C(=O)N3C[C@H]4C[C@@H](C3)c3cccc(=O)n3C4)c(C)c2oc1=O (stereo partly drawn)	-1	16	-3	-1	5	-93
COc1cc(C(=O)Nc2ccc(O)cc2)ccc1OC(C)=O	1	0	1	22	6	8
O=C(NNC(=O)c1ccccc1-n1cccc1)c1ccc(Cl)cc1Cl	5	4	1	-33	-4	-3
CCc1cccc(C)c1NC(=O)CSc1nnc(-c2ccco2)n1N	3	-12	5	-11	-3	4
O=C(CNc1ccc(C(F)(F)F)cc1[N+](=O)[O-])OCC(=O)c1ccccc1	4	18	-1	4	11	24
COc1cccc(-c2nc(Cc3ccc(OC)c(OC)c3)no2)c1	1	24	-6	16	-1	-10
CCOc1ccc(NC(=O)CSc2nnc(Cn3cnc([N+](=O)[O-])n3)n2CC)cc1	2	5	1	7	-12	12
O=[N+]([O-])c1cc(S(=O)(=O)N2CCOCC2)ccc1NS(=O)(=O)c1ccccc1	2	13	-8	-33	8	2
CC1CN(C2CC(C)(C)NC(C)(C)C2)CCC1=O (stereo not drawn)	-16	22	0	-4	5	12
N#CCCN(C(=O)COC(=O)c1cc(=O)c2ccccc2o1)c1ccccc1	-1	18	1	22	0	14
COc1ccc(S(=O)(=O)NCc2ccc(C(=O)N3CCN(Cc4ccccc4)CC3)cc2)cc1	-1	9	-6	-5	-1	16
COc1ccc(Cl)cc1NC(=O)CNC(c1ccccc1)c1ccccc1	0	16	1	23	21	14
C=CCNc1nc(-c2ccc(OC)cc2OC)cs1	-3	11	-5	15	3	-6
CC1=C(C(=O)Nc2ccccc2)C(c2cccnc2)n2nc(-c3cccnc3)nc2N1 (stereo not drawn)	0	2	-9	0	0	17
Cc1noc(C)c1S(=O)(=O)Nc1cccc(C(F)(F)F)c1	1	21	0	-15	-3	-3
CCCCOc1ccc2c(c1)/C(=C(\C(Cl)=C(Cl)Cl)[N+](=O)[O-])N2	3	20	-9	10	9	-229
C/C(=N\NC(=O)c1ccc(NS(=O)(=O)c2cccs2)cc1)c1ccccn1	/	5	-6	-26	-6	/
CC(=O)c1ccc(NC(=O)c2cnsn2)cc1	-1	-6	-6	-6	-410	18
CCc1ccc(Nc2ncccc2C#N)cc1	1	10	-4	1	7	-56
Cc1cc(C)c(C(N)=O)c(Nc2ccc(F)cc2)n1	-3	28	-6	-6	-9	15
COc1ccc(-c2ccc3ccccc3n2)cc1OC	-1	9	-5	12	9	-428

(cont.)
SMILES	SENP1 FRET inh	NALP3 yeast inh	HKDC1 inh	PfGluPho inh	Apaf1 inhib	SENP8 block
CC1CCCC(NC(=O)CSc2nnc(C(F)(F)F)n2C)C1C (stereo not drawn)	3	5	-4	-6	-5	6
Cc1cc(C)c(S(=O)(=O)Nc2cccc(S(=O)(=O)N3CCOCC3)c2)c(C)c1	2	-2	1	2	12	-6
Cn1c(CC(=O)NNC(=O)c2ccc(F)cc2Cl)nc2ccccc21	1	9	-4	-10	-3	-3
COC(=O)C1=C(C)Nc2nnnn2C1c1cccnc1 (stereo not drawn)	3	-10	-6	-2	-3	4
CCOCCCNC(=S)NCCCNc1nc2cc3c(cc2cc1C#N)OCO3	-79	8	16	30	-4	-291
CSc1nc(-c2ccccc2)nc2c1COC(C)(C)C2	1	15	5	10	12	14
COc1ccc(CNc2nc(-c3cccnc3)nn2C(=O)c2ccco2)cc1	2	10	0	-10	-6	8
O=C(Nc1ccc(S(=O)(=O)Nc2ccccn2)cc1)c1cccc(Cl)c1	-2	8	4	0	6	-71
O=C(/C=C/c1cccc([N+](=O)[O-])c1)c1cccs1	1	26	11	29	-1	12

Screens as filed in PubChem BioAssay.
